Screens: PubChem BioAssay, National Center for Advancing Translational Sciences (NCATS)
2A firefly – lowers the firefly signal of an FMDV 2A StopGo reporter; HEK cells with a luciferase reporter of 2A StopGo recoding; Potency, µM (series often up to 57.5 µM), inactives show top-dose signal change, negative = less light; 120,000 compounds, 0.23% hits; active = well fitted falling curve with a large enough effect; inconclusive = small, poorly fitted or top-dose-only effect; inactive = no such curve, though single readings can be large or run the other way; note: nearly all actives have a fitted effect of over 60% in size; overnight with compound
StopGo RLuc – lowers the Renilla signal of an FMDV 2A StopGo reporter; HEK cells with a luciferase reporter of 2A StopGo recoding; Potency, µM (top dose mostly 57.5 µM), for the others: at the highest dose signal change, negative = less light; 120,000 compounds, 0.32% hits; AID 1745857; active means well fitted falling curve with a large enough effect; inconclusive means small, poorly fitted or top-dose-only effect; inactive means no such curve, though single readings can be large or run the other way; note: nearly all actives have a fitted effect of over 55% in size; overnight with compound
* hit, by the source's call; [ ] = remark or other dose. % is set by controls: 0 for no effect and ±100 for the full control effect; potency is the fitted concentration of half-maximal effect.

Screening Cc1ccc(C(C)NC(=O)C2(c3cccc(F)c3)CCOCC2)s1 (stereo not given) returned 2A firefly -7% and StopGo RLuc 9%.
`O=S1(=O)c2ccc(Br)cc2OC[C@H](Cc2ccccc2)N1Cc1cn(Cc2ccc(Br)cc2)nn1` gave 2A firefly 22% and StopGo RLuc 53%[activator].
CC(=O)c1ccc(NC(=O)Cn2c(C)cc(=O)n3nc(-c4cccs4)nc23)cc1 was read as 2A firefly 7% and StopGo RLuc 4%.
Screening CC1CCCCN1C(=O)CSc1n[nH]c(-c2ccccc2Cl)n1 (stereo not given) returned 2A firefly 58%[activator] and StopGo RLuc 18%.
For COc1cc(C(=O)n2nc(-c3ccco3)nc2NCc2ccc(Cl)cc2)cc(OC)c1OC the results were 2A firefly 82%[activator] and StopGo RLuc -7%.
For CCOC(=O)c1c(C)[nH]c(C(=O)Cn2nnc(-c3ccc(C)cc3)n2)c1C the results were 2A firefly 0% and StopGo RLuc -6%.
COc1ccc(CN2C(=O)C(NC(=O)c3ccccc3C)(C(F)(F)F)N=C2c2ccccc2)cc1 (stereo not given) was read as 2A firefly inconclusive and StopGo RLuc inconclusive.
Screening CC1=C(C(=O)Nc2cc(C)ccc2C)C2(CCCCCC2)OC1=O returned 2A firefly -11% and StopGo RLuc 2%.
For CC1(C(=O)NC2CC3CC2C2CCCC32)CC1(Cl)Cl (stereo not given) the results were 2A firefly -14% and StopGo RLuc 1%.
For COC(=O)c1cc(-c2cccc(OC)c2)nc2ccccc12 the results were 2A firefly 23% and StopGo RLuc -3%.
Screening Cc1ccc(S(=O)(=O)N(CC(=O)NCC2CCCO2)c2ccccc2C)cc1 (stereo not given) returned 2A firefly 8% and StopGo RLuc 88%[activator].
For COc1cc(/C=C(/C#N)C(=O)c2ccccc2)cc(Br)c1O the results were 2A firefly 5% and StopGo RLuc 7%.
Screening COc1cc(OC)c(OC)cc1CNC(=O)Nn1cnc2ccccc21 returned 2A firefly 6% and StopGo RLuc -11%.
For CSc1ccccc1C(=O)N1CC(C)CC(C)C1 (stereo not given) the results were 2A firefly -7% and StopGo RLuc -3%.
Screening CC(C)CN(C(=O)Cc1c[nH]c2ccccc12)c1nc2ccccc2s1 returned 2A firefly inconclusive and StopGo RLuc inconclusive.
`COc1cccc(C(=O)Nc2ccc3oc(-c4ccc(F)cc4)cc(=O)c3c2)c1` gave 2A firefly 19% and StopGo RLuc 5%.
`CC(=O)OC1=CSc2cccc3cccc1c23` gave 2A firefly 12% and StopGo RLuc 6%.
Screening Cc1ccc(Cl)cc1NC(=O)Cn1ncc2c(C)n(Cc3ccccc3F)c(C)c2c1=O returned 2A firefly -18% and StopGo RLuc -10%.
Screening CCCCOC(=O)c1ccc(NC(=O)c2cc(=O)c3ccccc3o2)cc1 returned 2A firefly -19% and StopGo RLuc -5%.
Screening C=C(C)CN1CCN(c2oc(C3CC3)nc2C#N)CC1 returned 2A firefly 0% and StopGo RLuc 1%.
Screening COc1ccc(N2CCN(C(=O)Cn3nc(Cc4cccnc4)c4ccccc4c3=O)CC2)cc1 returned 2A firefly 12% and StopGo RLuc -11%.
Cc1nc(-c2ccc(S(=O)(=O)Nc3c(C)cccc3C)cc2)co1 was read as 2A firefly 3% and StopGo RLuc 28%.
`COCCn1c(SCc2nc(-c3ccccc3C)no2)nc2ccsc2c1=O` gave 2A firefly inconclusive and StopGo RLuc inconclusive.
For Cc1ccc2[nH]c(C)c(CC(=O)NC(C)c3ccncc3)c2c1 (stereo not given) the results were 2A firefly 0% and StopGo RLuc 3%.
Cc1ccc(-c2nc(CSc3nc4ncccc4[nH]3)c(C)o2)c(C)c1 was read as 2A firefly -2% and StopGo RLuc -11%.
CCCN1Cc2cccc(C(=O)Nc3cccc(C(=O)OCC)c3)c2C1=O was read as 2A firefly -6% and StopGo RLuc -6%.
For O=C(Nc1cccc(N2CCCC2=O)c1)c1ccc(-n2cnc3ccccc32)cc1 the results were 2A firefly 5% and StopGo RLuc -14%.
For CCc1nc2nc(C)[nH]n2c(=O)c1NC(=O)Nc1cccc(C(F)(F)F)c1 the results were 2A firefly 17% and StopGo RLuc 0%.
Screening CC(NC(=O)CCNS(=O)(=O)c1cccc2nsnc12)c1ccccc1 (stereo not given) returned 2A firefly -4% and StopGo RLuc 6%.
Screening O=C(NCc1cccc(Oc2ccccc2)c1)C(=O)c1c[nH]c2ccccc12 returned 2A firefly inconclusive and StopGo RLuc 54%[activator].
Cc1ccccc1-c1noc(C23CC4CC(CC(C4)C2)C3)n1 was read as 2A firefly 11% and StopGo RLuc 2%.
Screening O=C(NC1CC1)c1ccc(NC(=O)c2cc(-c3ccco3)nc3ccccc23)cc1 returned 2A firefly 0% and StopGo RLuc 16%.
`Cc1cccc(NC(=O)C2CCC(CNS(=O)(=O)c3ccc4c(c3)CCCC(=O)N4)CC2)c1C` (stereo not given) gave 2A firefly -13% and StopGo RLuc -18%.
Screening CC(Sc1ncnc2nc[nH]c12)C(=O)Nc1ccccc1Cl (stereo not given) returned 2A firefly 16% and StopGo RLuc 12%.
`CCOc1ccc2nc(N3CCCC(C(=O)NCCc4cc(OC)ccc4OC)C3)sc2c1` (stereo not given) gave 2A firefly 71%[activator] and StopGo RLuc 35%[activator].
`CSCCC(NC(=O)c1ccccc1)C(=O)NCc1ccc(C(F)(F)F)cc1` (stereo not given) gave 2A firefly 0% and StopGo RLuc -12%[1.06 µM].
For Cc1ccc(-c2cc(C(=O)Nc3cccc(CO)c3)c3ccccc3n2)cc1 the results were 2A firefly 129%[activator] and StopGo RLuc 40%[activator].
`Cc1c(NC(=O)c2cc(-c3ccc(Br)cc3)on2)c(=O)n(-c2ccccc2)n1C` gave 2A firefly -10% and StopGo RLuc -7%.
CC1(C)O[C@H]2[C@@H](O1)[C@@H](C(=O)Oc1ccc(Cl)cc1)O[C@@H]1OC(C)(C)O[C@@H]12 was read as 2A firefly 0% and StopGo RLuc 15%.
CCCCOc1ccc(S(=O)(=O)NCc2csc(-c3ccc(OC)cc3)n2)cc1 was read as 2A firefly -39% and StopGo RLuc inconclusive.
Screening CN(Cc1c(F)cccc1Cl)C(=O)c1cccc(NS(C)(=O)=O)c1 returned 2A firefly -3% and StopGo RLuc inconclusive.
COc1ccccc1/C=C/C(=O)c1ccc(C)cc1OC was read as 2A firefly 0% and StopGo RLuc 31%[activator].
For COc1cccc(-c2noc(COC(=O)Cc3n[nH]c(=O)c4ccccc34)n2)c1 the results were 2A firefly 39%[activator] and StopGo RLuc -18%.
For O=C1C(=O)N(C2CCCC2)C(=O)N1Cc1cc(F)cc2cccnc12 the results were 2A firefly 8% and StopGo RLuc -1%.
Cc1cc(C(=O)Nc2ccccc2C(C)C)c2ccccc2n1 was read as 2A firefly -12% and StopGo RLuc -6%.
Screening O=C(Nc1sc2c(c1C(=O)O)CCCC2)c1cccs1 returned 2A firefly 115%[activator] and StopGo RLuc inconclusive.
Screening Cc1ccc(-c2nn3c(=O)cc(CN4CCN(C(=O)/C=C/c5ccccc5)CC4)nc3s2)cc1 returned 2A firefly -9% and StopGo RLuc -8%.
Screening Cc1ccc(C)c(NC(=O)C(CC(C)C)N2Cc3ccccc3C2=O)c1 (stereo not given) returned 2A firefly -11% and StopGo RLuc 82%[activator].
`O=C(CN(Cc1ccco1)S(=O)(=O)c1ccccc1)Nc1ccc2c(c1)OC1(CCCCC1)O2` gave 2A firefly 0% and StopGo RLuc 49%[activator].
For COCCCNC(=O)C(C#N)c1nc2ccccc2nc1N1CCN(Cc2ccccc2)CC1 (stereo not given) the results were 2A firefly 57%[activator] and StopGo RLuc 44%[activator].
`CC(C)OC(=O)c1nc2ccccc2nc1N1CCN(c2ccc(F)cc2)CC1` gave 2A firefly 69%[activator] and StopGo RLuc -3%.
Screening COc1cc(/C=C(/C#N)C(=O)c2ccccc2)ccc1OC(=O)c1ccc(F)cc1 returned 2A firefly 39%[activator] and StopGo RLuc 29%.
Screening Cc1ccc(-n2nc(C)c3c(C)cc(=O)n(CC(=O)Nc4cc(Cl)ccc4C)c32)cc1 returned 2A firefly -10% and StopGo RLuc 6%.
Screening CC(NC(=O)CCCc1nc2ccccc2o1)c1ccccc1 (stereo not given) returned 2A firefly 17% and StopGo RLuc 5%.
Screening COc1cccc(NC(=O)C2CCN(c3cc(C)nc4c(-c5ccc(Cl)cc5)c(C)nn34)CC2)c1 returned 2A firefly -12% and StopGo RLuc -14%.
`Cc1sc2nc(C(C)Sc3nnnn3C)[nH]c(=O)c2c1C` (stereo not given) gave 2A firefly 1% and StopGo RLuc 4%.
For CC(=O)NC1=NN(C(C)=O)C2(S1)C(=O)N(C)c1ccc(F)cc12 (stereo not given) the results were 2A firefly -2% and StopGo RLuc 15%.
CCC(=O)C1=C(c2ccc(C3CCCCC3)cc2)N(C(=O)CC)n2cnnc2S1 was read as 2A firefly 15% and StopGo RLuc inconclusive.
For O=C(Nc1ccccc1F)c1nn(Cc2ccccc2)c(=O)c2ccccc12 the results were 2A firefly 1% and StopGo RLuc -1%.
CC(=O)c1cc2ccccc2s1 was read as 2A firefly -19%[11.5 µM] and StopGo RLuc -12%.
Screening CNC(=O)c1ccc(N(Cc2ccccc2C)S(C)(=O)=O)cc1 returned 2A firefly 5% and StopGo RLuc 8%.
Screening O=C(Cn1ccccc1=O)Nc1ccc(F)cc1Cl returned 2A firefly 3% and StopGo RLuc -3%.
`COc1cccc2c1Oc1nc(-c3ccccc3)nc(SCC(=O)Nc3ccccc3)c1C2` gave 2A firefly 0% and StopGo RLuc -4%.
For CCc1ccc(C(=O)c2sc(Nc3cccc(Cl)c3)nc2N)cc1 the results were 2A firefly 39%[activator] and StopGo RLuc 10%.
Screening CC(C)Cn1cnc2c1c(O)nc(=O)n2Cc1ccccc1 returned 2A firefly 13% and StopGo RLuc 2%.
Screening CCC(Sc1nnc(-c2ccc(F)cc2)c(-c2ccc(F)cc2)n1)C(=O)NC1CCCC1 (stereo not given) returned 2A firefly 25% and StopGo RLuc 44%[activator].
`NNc1ccc(S(=O)(=O)O)cc1` gave 2A firefly 5% and StopGo RLuc 16%.
`O=S(=O)(c1ccc2nc(N3CCN(c4ccc(F)cc4)CC3)ccc2c1)N1CCOCC1` gave 2A firefly -2% and StopGo RLuc -6%.
Cn1c(=O)[nH]c(=O)c2c1nc(SCc1ccc(F)cc1)n2Cc1ccccc1 was read as 2A firefly -16% and StopGo RLuc -19%.
For Cn1c(=O)c2c(nc(Cl)n2Cc2c(Cl)cccc2Cl)n(C)c1=O the results were 2A firefly -5% and StopGo RLuc -6%.
For CC(NC(=O)CSc1ccc2ccccc2n1)C1CC1 (stereo not given) the results were 2A firefly 9% and StopGo RLuc -20%.
For CCCCn1nc(C(=O)NCC(=O)Nc2c(C)cccc2C)c2ccccc2c1=O the results were 2A firefly -16% and StopGo RLuc -5%.

Sorted by molecular weight (largest number first): part of the list above.
`O=C(CN(Cc1ccco1)S(=O)(=O)c1ccccc1)Nc1ccc2c(c1)OC1(CCCCC1)O2` gave 2A firefly 0% and StopGo RLuc 49%[activator].
Screening O=C(NC1CC1)c1ccc(NC(=O)c2cc(-c3ccco3)nc3ccccc23)cc1 returned 2A firefly 0% and StopGo RLuc 16%.
For O=C(Nc1cccc(N2CCCC2=O)c1)c1ccc(-n2cnc3ccccc32)cc1 the results were 2A firefly 5% and StopGo RLuc -14%.
For CCc1nc2nc(C)[nH]n2c(=O)c1NC(=O)Nc1cccc(C(F)(F)F)c1 the results were 2A firefly 17% and StopGo RLuc 0%.
For COc1cc(/C=C(/C#N)C(=O)c2ccccc2)cc(Br)c1O the results were 2A firefly 5% and StopGo RLuc 7%.
Screening Cc1ccc(C)c(NC(=O)C(CC(C)C)N2Cc3ccccc3C2=O)c1 (stereo not given) returned 2A firefly -11% and StopGo RLuc 82%[activator].
For CC(=O)NC1=NN(C(C)=O)C2(S1)C(=O)N(C)c1ccc(F)cc12 (stereo not given) the results were 2A firefly -2% and StopGo RLuc 15%.
Screening CC1=C(C(=O)Nc2cc(C)ccc2C)C2(CCCCCC2)OC1=O returned 2A firefly -11% and StopGo RLuc 2%.
Screening CC(NC(=O)CCCc1nc2ccccc2o1)c1ccccc1 (stereo not given) returned 2A firefly 17% and StopGo RLuc 5%.
COc1ccccc1/C=C/C(=O)c1ccc(C)cc1OC was read as 2A firefly 0% and StopGo RLuc 31%[activator].
For CSc1ccccc1C(=O)N1CC(C)CC(C)C1 (stereo not given) the results were 2A firefly -7% and StopGo RLuc -3%.
`NNc1ccc(S(=O)(=O)O)cc1` gave 2A firefly 5% and StopGo RLuc 16%.

Additional results follow.
`CC(=O)NCCNC(=S)Nc1ccc(F)cc1` gave 2A firefly 5% and StopGo RLuc 14%.
N#C/C(=C/c1ccccc1)C(=O)OCC1CCCO1 (stereo not given) was read as 2A firefly 6% and StopGo RLuc 6%.
Screening CC1CCC(NC(=O)/C=C/c2cccc(C#N)c2)CC1 (stereo not given) returned 2A firefly inconclusive and StopGo RLuc inconclusive.
For CCN(CC)CCNC(=O)Cc1c(C)[nH]c2ccc(F)cc12 the results were 2A firefly -5% and StopGo RLuc -13%.
`NC(=S)NCc1ccccc1Cl` gave 2A firefly 11% and StopGo RLuc 2%.
`CNc1nc(-c2cc3c4c(c2)CC(=O)N4CCC3)cs1` gave 2A firefly 209%[activator] and StopGo RLuc 46%[activator].
For CCOc1ccc(NC(=O)c2cc(C)nc3c2c(C)nn3-c2ccc(C)cc2)cc1 the results were 2A firefly -2% and StopGo RLuc 3%.
Screening CN(Cc1ccsc1)C(=O)CCl returned 2A firefly -16% and StopGo RLuc -19%.
CCOC(=O)N1CCc2c(sc3c2C(=O)NC(c2ccc(C(=O)OC)cc2)N3)C1 (stereo not given) was read as 2A firefly 2% and StopGo RLuc -12%.
Screening Cc1ccc(C)c(CNC(=O)CCn2cccn2)c1 returned 2A firefly 4% and StopGo RLuc 5%.
